Assay outcomes deposited in PubChem by National Center for Advancing Translational Sciences (NCATS).
TSHR ag = qHTS Assay for Agonists of the Thyroid Stimulating Hormone Receptor; HEK293-CNG-TSHR cells (CNG channel as cAMP sensor), membrane potential dye, cAMP; Potency, µM (titrated, usually from 57.1 µM), without a hit: top-dose activation, actives largely listed as activators; 73,000 compounds, 0.48% hits; active = well fitted activation curve of enough size with the parental cells flat; inconclusive = any curve in the parental cells; inactive = parental cells flat and receptor cells flat or falling; further: potency means the concentration at half of the fitted maximal effect; % of control where 0% means no effect; weak receptor curves with flat parental cells got no call and are not listed
Target sequence (P16473 whole entry, looked up): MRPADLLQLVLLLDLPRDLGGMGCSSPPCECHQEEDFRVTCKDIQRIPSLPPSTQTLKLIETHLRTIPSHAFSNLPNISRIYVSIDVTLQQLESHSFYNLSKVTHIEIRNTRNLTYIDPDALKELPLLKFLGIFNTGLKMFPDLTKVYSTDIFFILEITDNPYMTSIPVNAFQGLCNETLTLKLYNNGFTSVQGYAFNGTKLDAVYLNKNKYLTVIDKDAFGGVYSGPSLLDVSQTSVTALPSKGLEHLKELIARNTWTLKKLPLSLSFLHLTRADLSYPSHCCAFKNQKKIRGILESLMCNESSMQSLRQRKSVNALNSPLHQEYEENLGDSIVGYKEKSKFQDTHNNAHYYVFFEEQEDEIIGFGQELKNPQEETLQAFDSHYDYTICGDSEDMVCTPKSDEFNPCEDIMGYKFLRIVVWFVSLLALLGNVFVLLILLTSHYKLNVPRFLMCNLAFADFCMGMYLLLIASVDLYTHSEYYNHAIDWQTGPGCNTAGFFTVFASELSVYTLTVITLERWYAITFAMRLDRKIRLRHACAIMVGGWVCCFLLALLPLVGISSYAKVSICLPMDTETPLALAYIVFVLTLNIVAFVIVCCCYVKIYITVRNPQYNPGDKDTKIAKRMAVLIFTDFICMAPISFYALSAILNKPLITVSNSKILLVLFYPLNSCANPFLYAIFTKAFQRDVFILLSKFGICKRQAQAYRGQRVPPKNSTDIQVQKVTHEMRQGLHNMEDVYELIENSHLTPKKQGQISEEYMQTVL
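HEK 293 cells stably expressing TSHR and a cAMP-gated CNG channel; parental CNG-only cells as counterscreen. Cells preloaded 60 min with membrane potential dye plus 100 uM RO 20-1724, then compound 30 min; fluorescence read at 590 nm.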
A488 fluor = qHTS Assay for Spectroscopic Profiling in A488 Spectral Region; AID 591, 2007; max dye equivalency, M; 59,000 compounds, 0.1% hits; compound autofluorescence, A488 spectral region, dye equivalency; active compounds read high; active = above 10 nM dye equivalent; inconclusive = 1 to 10 nM; inactive = 1 nM or less; about half of its hits are not listed in these tables;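 further: highest value over a series up to 38 µM; compound alone in buffer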
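Readout is A488 dye-equivalent concentration, calibrated by a per-plate six-point Alexa 488 series. Compounds in 100 mM Tris buffer pH 8.0 were incubated 15 min at room temperature. Plates were imaged using 480 nm excitation/540 nm emission filters.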
Resorufin autofl = qHTS Assay for Spectroscopic Profiling in Resorufin Spectral Region; Compound fluorescence, resorufin region 547/598 nm, buffer; active compounds read high; max dye-equivalent concentration, M; 59,000 compounds, 0.04% hits; AID 588, 2007; active = above 10 nM dye equivalent; inconclusive = 1 to 10 nM; inactive = 1 nM or less; a few of its hits are not listed in these tables; further: highest value over a series up to 38 µM
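Compounds in 100 mM Tris, pH 8.0, incubated 15 min at room temperature, then fluorescence read at 547 nm excitation/598 nm emission. Signal converted to dye-equivalent concentration via an on-plate six-point resorufin standard curve, per compound concentration.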
AID923 = qHTS Assay for Allosteric/Competitive Inhibitors of Caspase-1: Spectroscopic Profiling in AFC Spectral Region. AID 923, 2007. Potency, µM (doses to about 57.5 µM), for the others: top-dose fluorescence increase, hits mostly activators. 75,000 compounds, 1.1% hits. compound fluorescence, AFC spectral region (405/520 nm); almost no hit is shown here; active means well fitted activation curve with a large enough effect; inconclusive means small, poorly fitted or top-dose-only effect;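 further: potency means the concentration at half of the fitted maximal effect; 0% is about no effect; scaled to a free AFC standard on each plate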
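Titrations up to 57 uM read every 20 sec for 3 min (405/520 nm) with 50 nM caspase 1 and 5 uM Ac-WEHD-AFC, pH 7.5 HEPES buffer. Fluorescence-vs-time intercept gave baseline, scaled against on-plate AFC standard.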
A647 autofl = qHTS Assay for Spectroscopic Profiling in A647 Spectral Region; max dye-equivalent concentration, M; Compound fluorescence, A647 channel (570/671 nm), Tris buffer; 59,000 tested, under 10 active; active means above 1 µM dye equivalent; inconclusive means 0.1 to 1 µM; inactive means 0.1 µM or less;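 further: values scaled relative to a standard on each plate; highest value over a series up to 38 µM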
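Compound fluorescence was measured in 100 mM Tris buffer, pH 8.0, after 15 min at room temperature, using 570 nm excitation and 671 nm emission filters. Signal was normalized to a per-plate Alexa 647 standard curve and expressed as dye-equivalent concentration at each compound concentration.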
* hit, by the source's call; i = inactive; ? = inconclusive; nt = not tested or not shown; & = joins results of further samples; [ ] = remark or other dose. An excerpt (hit frequency here may not be typical).

item	mol	TSHR ag	A488 fluor	Resorufin autofl	AID923	A647 autofl
1	Cn1c(SCc2ccc(Br)cc2)nnc1-c1cccs1	?	i	i	-1.1%	2.47e-08
2	CC(=O)N1CCN(S(=O)(=O)c2cccc(C(=O)Nc3ccc4c(c3)CCC4)c2)CC1	-0.6%	i	i	0.4%	5.2e-09
3	COc1ccc(C(=O)Nn2cc3c(c2-c2ccccc2)c(=O)n(C)c(=O)n3C)cc1	-2.7%	i	i	-2.1%	4e-09
4	CC(NC(=O)c1ccccc1NS(C)(=O)=O)c1ccccc1 (centres undefined)	3.7%	i	i	-1.2%	1e-09
5	CCCN1CCC(N2CCN(c3cccc(C(F)(F)F)c3)CC2)CC1	21.0%	nt	nt	0.7%	nt
6	CC1=CC(C)(C)Nc2ccc(OC(=O)c3ccco3)cc21	6.4%	nt	nt	0.3%	nt
7	S=c1[nH]ncn1/N=C/c1ccccc1	7.6%	i	i	-0.6%	9.3e-09
8	Cc1ccc(CCSCC(=O)O)cn1	nt	i	i	1.5%	1e-09
9	CC(C)CCN1C(=O)CCC1(C)C(=O)NC1CCCCCC1 (centres undefined)	14.0%	i	i	-1.0%	1e-09
10	COc1ccc(S(=O)(=O)N(Cc2cccs2)C2CCCC2)cc1	?	i	i	3.3%	1e-09
11	CCOC(=O)C1CCN(C(=O)c2cccc(C(=O)N3CCC(C(=O)OCC)CC3)c2)CC1	2.8%	nt	nt	0.6%	nt
12	Cc1cc(C(=O)NCc2ccc(S(N)(=O)=O)cc2)c(C)o1	8.1%	i	i	0.0%	1e-09
13	CC(C)[C@H](CO)Nc1nc(Nc2ccc(C(=O)O)c(Cl)c2)c2ncn(C(C)C)c2n1	7.5%	nt	nt	0.3%	nt
14	O=C(NCc1ccco1)c1cccc2ccccc12	-5.7%	i	i	0.4%	2.02e-08
15	COc1ccccc1N1CCN(CCCCN2C(=O)c3ccccc3C2=O)CC1	19.4%&-24.0%	i	i	-0.8%&-4.6%	9.8e-09
16	CCCCC(=O)Nc1sc2c(c1C(N)=O)CCC2	-0.1%	i	i	-0.1%	1.82e-08
17	CCn1c(SCC(=O)N2CCN(c3ccccc3)CC2)nnc1-c1cc2cc(Cl)ccc2o1	?	i	i	1.6%	2.13e-08
18	CCCc1ccccc1OCCNC(C)=O	8.1%	i	i	2.1%	1.71e-08
19	CC1=C(C)NC(=S)SC1	-3.1%	i	i	-0.3%	6.8e-09
20	CC1=C(C#N)C(=O)N(C)C(C)(C)C1	0.3%	i	i	0.8%	6.4e-09
21	COc1cc(-c2nnc(SCC(=O)OC3CCCCC3)o2)cc(OC)c1OC	22.9%	i	i	1.1%	2.2e-09
22	Cc1cc(NC(=O)CCC(=O)N(c2ccccc2)C(C(=O)NC2CCCC2)c2cccs2)no1 (centres undefined)	-3.6%	i	i	-0.3%	3.9e-09
23	Cc1cccc(NC(=O)CCn2nc(C)cc2C)c1	7.0%	i	i	0.6%	3.27e-08
24	O=C(COc1ccc(Cl)cc1)OCC(=O)N1CCCCCC1	-1.1%	i	i	1.3%	1.14e-08
25	O=C(CCCn1c(=S)[nH]c2cc3c(cc2c1=O)OCO3)N1CCN(c2ncccn2)CC1	1.2%	i	i	0.1%	1e-09
26	Cc1ccc(Cn2nnc3c(=O)n(CC(=O)N4CCCCC4)cnc32)cc1	8.8%	i	i	-0.8%	2.43e-08
27	COc1cccc(C2C(C(=O)Nc3cccnc3)=C(C)Nc3nnnn32)c1OC (centres undefined)	-3.0%	i	i	0.7%	6e-09
28	O=C(O)c1ccc(C(=O)c2ccc3c(c2)C(=O)N(Cc2ccco2)C3=O)cc1	2.0%	i	i	-0.8%	1e-09
29	O=c1oc(-c2cccc(S(=O)(=O)N3CCOCC3)c2)nc2ccccc12	9.4%	i	i	-1.3%	1.8e-08
30	O=S(=O)(NCCc1ccccc1F)c1cccc(S(=O)(=O)N2CCOCC2)c1	-3.8%	i	i	-0.3%	7.1e-09
31	CC(=O)c1cccc(NC(=O)CN2C(=O)C3C4C=CC(C4)C3C2=O)c1 (centres undefined)	1.2%	nt	nt	1.2%	nt
32	CC(C)Nc1ncnc2c1cnn2-c1ccccc1	?	nt	nt	1.4%	nt
33	COc1cccc(/C=C2\N=C(SC)SC2=O)c1OC	1.5%	nt	nt	11.6%	nt
34	O=C1CC(c2ccco2)=Nc2ccccc2N1	0.6%	i	i	0.6%	1.27e-08
35	CC(c1cccnc1)N(CCN(C)C)C(=O)Nc1ccc(Cl)c(Cl)c1 (centres undefined)	4.7%	nt	nt	0.7%	nt
36	COc1ccccc1NC(=O)c1ccc(COc2ccccc2OC)o1	?	i	i	0.6%	1.93e-08
37	COc1cc(NC(=O)C2CCCO2)c(C(=O)O)cc1OC (centres undefined)	13.0%	i	i	0.1%	2e-09
38	O=C1CN(C(=O)COc2ccccc2)CCN1	-7.0%	nt	nt	-2.6%	nt
39	O=C(NC1CCN(Cc2ccccc2)CC1)C1CCN(c2nnc(-n3cccc3)s2)CC1	?	nt	nt	-3.7%	nt
40	O=C(c1cc(-c2ccccc2O)on1)N1CCCC1	?	nt	nt	0.7%	nt
41	Cc1onc(-c2ccccc2)c1C(=O)NCc1ccccn1	1.9%	i	i	-1.1%	6e-09
42	CNC(=O)c1cccc(N2CCCC2=O)c1	-1.1%	i	i	0.4%	1.7e-09
43	Cn1c(=O)c2c(ncn2CC(=O)OCc2ccccc2)n(C)c1=O	-4.3%	i	i	-0.2%	1e-09
44	Fc1cc(F)c(F)c(SCCc2ccncc2)c1F	nt	i	i	nt	1e-09
45	Cc1[nH]c2ccccc2c1C(O)CN1CCN(c2cccc(C(F)(F)F)c2)CC1 (centres undefined)	-16.8%	i	i	2.0%	2.9e-09
46	CCn1nnc(-c2ccccc2NC(=O)c2cc(OC)cc(OC)c2)n1	?	i	i	-3.6%	3e-09
47	CCCCCCOC(=O)NCC(O)c1ccccc1 (centres undefined)	-2.9%	nt	nt	-0.5%	nt
48	CC(C)C(OC(=O)c1ccco1)C(=O)NCc1ccco1 (centres undefined)	0.1%	i	i	1.8%	5.2e-08
49	CCOc1ccc(S(=O)(=O)Nc2ccc(Cl)cn2)c(C)c1C	13.8%	i	i	-1.6%	1.04e-08
50	COc1ccc(CCNS(=O)(=O)c2ccccc2)cc1OC	11.2%	i	i	-2.9%	1e-09
51	Cn1c(=O)c2c(ncn2CC(=O)NCc2cccnc2)n(C)c1=O	-4.8%	nt	nt	1.6%	nt
52	CCN1CCN(Cc2ccc(NC(=O)Nc3ccccc3)cc2)CC1	6.4%	nt	nt	1.1%	nt
53	Cc1ccc(-c2cc(C(F)(F)F)n3ncc(C(=O)O)c3n2)cc1	-1.0%	i	i	4.8%	1.11e-08
54	CCCN(CCC)C1CC(=O)N(Cc2ccccc2)C1=O (centres undefined)	nt	i	i	-0.2%	4.47e-08
55	O=C(COc1ccccc1)N1CCN(C(=O)c2cccc(F)c2)CC1	2.7%	nt	nt	5.1%	nt
56	COc1ccc(S(=O)(=O)N2CCN(C(=O)COc3ccc4c(C)cc(=O)oc4c3)CC2)cc1	4.5%	i	i	2.4%	1.13e-08
57	COC(=O)CCC(=O)Oc1ccc(OC(=O)CCC(=O)OC)cc1	-1.9%	nt	nt	0.3%	nt
58	CC(C)CN(CC(C)C)S(=O)(=O)N1CCC(C(=O)NCc2ccc(F)cc2)CC1	5.7%	i	i	0.8%	1e-09
59	Cc1c(C(=O)OC(C)C)[nH]c2c1C(=O)CCC2	?	i	i	-0.9%	1e-09
60	COc1ccc(CNc2ccnc(-c3ccccc3Cl)n2)c(OC)c1	?	i	i	1.4%	1.54e-08

More results follow:
item	mol	TSHR ag	A488 fluor	Resorufin autofl	AID923	A647 autofl
61	COc1cccc(C(c2sc3nc(C)nn3c2O)N2CCc3ccccc3C2)c1 (centres undefined)	-5.0%	nt	nt	-2.1%	nt
62	O=c1n(-c2ccccc2)c(=O)n2n1CCCC2	-6.7%	i	i	-0.7%	1e-09
63	Clc1ccccc1-c1cc(NCc2cccnc2)ncn1	6.0%	i	i	-1.3%	2.7e-09
64	O=CN1CCN(C[C@H](O)CN2CCCCC2)CC1	8.1%[11.4 µM]	i	i	2.3%[11.5 µM]	2.64e-08
65	CS(=O)(=O)CCC(C(=O)N1CCOCC1)N1C(=O)c2cc(Cl)c(Cl)cc2C1=O (centres undefined)	-4.1%	i	i	4.8%	1e-09
66	CCCc1cc(N2CCCC(C(=O)Nc3c(OC)cccc3OC)C2)n2ncnc2n1 (centres undefined)	nt	i	i	-1.4%	5.8e-09
67	CCCCC(=O)Nc1cccc(NC(=O)CC)c1	-7.5%	i	i	1.0%	2.2e-09
68	COc1ccc(-c2cc(=O)c3ccc(O)cc3o2)cc1	0.8%	i	i	5.1%	5.3e-09
69	CCOC(=O)C1=C(C)OC(N)=C(C#N)C1C1CCCCC1 (centres undefined)	?	nt	nt	0.1%	nt
70	N#Cc1ccccc1NC(=O)Nc1cccc(Cl)c1	6.4%	nt	nt	1.9%	nt
71	CN(CC(=O)NCc1cccs1)S(=O)(=O)c1cccc2cccnc12	?	nt	nt	-0.6%	nt
72	COc1ccc(CCNc2oc(-c3ccc(C)cc3)nc2C#N)cc1OC	7.5%	nt	nt	0.5%	nt
73	O=C(N1CCCCC1)C12CC3CC(C1)CC(C(=O)N1CCCCC1)(C3)C2	13.2%	i	i	1.1%	6e-09
74	CCCCC(=O)NC(Nc1nc(C2CC2)cs1)(C(=O)OCC)C(F)(F)F (centres undefined)	10.7%[11.4 µM]	i	i	-0.5%	3.19e-08
75	COC(=O)CSc1nc(C2CC2)cc(C(F)(F)F)c1C#N	?	i	i	6.0%	6.1e-09
76	CC1(C(=O)O)CCC(C(=O)Nc2ccc(S(N)(=O)=O)cc2)C1(C)C (centres undefined)	-3.7%	nt	nt	3.2%	nt
77	COc1ccc(-c2nc(N)n[nH]2)cc1OC	-2.6%	i	i	0.8%	1e-09
78	COc1ccccc1N1CCN(C(=O)c2ccc(C(C)(C)C)cc2)CC1	?	i	i	-2.5%	7.2e-09
79	O=C(c1ccc2c(c1)C(=O)N(CCCO)C2=O)c1ccc2c(c1)C(=O)N(CCCO)C2=O	?	nt	nt	0.3%	nt
80	CCN(CC)C(=O)CSc1nnc(-c2cc3ccccc3cc2O)n1CC	10.1%	i	i	0.8%	2.47e-08
81	CCOc1ccc(OCc2ccc(C(=O)NCC3CCCO3)o2)cc1 (centres undefined)	7.0%	i	i	-0.2%	6.7e-09
82	C=CC[C@@H]1C=C[C@@H](O/N=C\C[C@@H]2C=C[C@H](OC(C)=O)[C@H](COC(C)=O)O2)[C@@H](CO)O1	-6.6%[11.4 µM]	nt	nt	-0.7%[11.5 µM]	nt
83	CCn1c(=O)cc(OCC(=O)NCc2ccco2)c2ccccc21	0.5%[11.4 µM]	i	i	1.6%	4.6e-09
84	CNC(=O)CSc1nnc(-c2cc(C)cc(C)c2)o1	-6.0%	i	i	0.6%	2.87e-08
